# Screening results from PubChem.
# GLA inh pH 4.5: alpha-galactosidase A (human) inhibition, pH 4.5; 230,000 tested, under 10 active; AID 1467; purified enzyme, 4-MU-alpha-Gal fluorescence, pH 4.5; P06280; activity change, negative = inhibition, % at 105 µM; inconclusive = small, poorly fitted or top-dose-only inhibition, or a rising curve; inactive = flat fitted curve, though single readings scatter; no compound was filed as active;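 note: 0% = full activity with enzyme and -100% = basal without enzyme; dose as in the result columns while the protocol names 77 µM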
# Target sequence (P06280 whole entry, looked up): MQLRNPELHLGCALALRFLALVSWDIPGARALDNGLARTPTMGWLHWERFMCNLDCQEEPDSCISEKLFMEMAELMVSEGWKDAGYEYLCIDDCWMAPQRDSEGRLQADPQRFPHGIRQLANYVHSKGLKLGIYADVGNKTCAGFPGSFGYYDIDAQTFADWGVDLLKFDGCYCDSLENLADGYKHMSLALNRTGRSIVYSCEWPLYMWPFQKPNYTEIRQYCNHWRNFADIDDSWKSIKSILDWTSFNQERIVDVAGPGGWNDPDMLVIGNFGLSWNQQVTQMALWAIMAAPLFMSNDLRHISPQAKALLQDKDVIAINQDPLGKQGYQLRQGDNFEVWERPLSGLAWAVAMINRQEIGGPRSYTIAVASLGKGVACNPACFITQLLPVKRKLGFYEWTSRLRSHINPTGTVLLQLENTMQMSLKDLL
# * hit, by the source's call; ? = inconclusive; & = joins results of further samples. Some of the compounds tested; count on the stated rates, not on these rows.
SMILES,GLA inh pH 4.5
COC(=O)[C@@]1(OC)C[C@@H]2O[C@@]1(C)n1c3ccccc3c3c4c(c5c6ccccc6n2c5c31)C(=O)N(C)C4,2
CCCCC/C=C\C/C=C\C/C=C\C/C=C\CCCC(=O)NCCc1ccc(O)c(O)c1,-7&2
CC(=O)[C@@H]1CC[C@H]2[C@H]3CC[C@H]4C[C@@H](O)CC[C@]4(C)[C@@H]3C(=O)C[C@@]12C,7
COc1cc(N)c(Cl)cc1C(=O)N[C@@H]1CN2CCC1CC2,8
CCCN(CCC)CCc1c[nH]c2ccc(C(N)=O)cc12,-4
CC1N(P(=O)(c2ccccc2)c2ccccc2)CC(O)(c2ccccc2)CC12CC2 (stereo unspecified),-26
c1ccc2sc(SNC3CCCCC3)nc2c1,0
CC1(C)C(O)CC(O)[C@]2(C)C1CC(=O)[C@]1(C)C2CC[C@@]2(C)C(c3ccoc3)OC(=O)C3OC321 (stereo partly specified),0
NC[C@H](CC(=O)O)c1ccc(Cl)cc1,1
C=CCN1CC[C@]23c4c5ccc(O)c4O[C@@H]2C(=O)CC[C@]3(O)[C@H]1C5,-2&-1
CN(C)C(=O)Oc1cc(OC(=O)N(C)C)cc([C@@H](O)CNC(C)(C)C)c1,-3
CC1(C)C2C[C@@H](O)[C@]3(C)C(CC[C@@]4(C)[C@H](c5ccoc5)C[C@H]5O[C@]543)[C@@]2(C)[C@@H](O)C[C@H]1O (stereo partly specified),-11
C[C@@]12CCC(Cl)C[C@H]1CCC1C2CC[C@]2(C)C(=O)CCC12 (stereo partly specified),-5
CC(=O)O.CC(=O)O.[Cd],-5
COc1ccc2c3c1O[C@H]1C(=O)CC[C@@]4(O)C(C2)N(CC2CC2)CCC314 (stereo partly specified),-11
CC/C=C\C/C=C\C/C=C\C/C=C\C/C=C\CCCC(N)=O,-10
CC(C)c1ccc2c(c1O)CCC1C3=C(CC[C@]21C)C(=O)OC3 (stereo partly specified),-4
CC1OC(=O)C(C(C)C)NC(=O)C(C(C)C)OC(=O)C(C(C)C)NC(=O)C(C)OC(=O)C(C(C)C)NC(=O)C(C(C)C)OC(=O)C(C(C)C)NC(=O)C(C)OC(=O)C(C(C)C)NC(=O)C(C(C)C)OC(=O)C(C(C)C)NC1=O (stereo unspecified),-3
C[C@H]1C[C@H](C)C(=O)[C@@H]([C@H](O)CC2CC(=O)NC(=O)C2)C1,-6
CCOC(=O)c1ncn2c1[C@H]1CCCN1C(=O)c1cc(OC)ccc1-2,-6
N[C@H](C(=O)O)c1cc(=O)[nH]o1,2
NC(=O)COc1c(F)cc(SCCNS(=O)(=O)c2ccccc2)cc1F,2
O=C1NC(=O)c2c1c1c3ccccc3[nH]c1c1[nH]c3ccccc3c21,-5
CO/C1=C\C(C)=C\[C@@H](C)[C@@H](O)[C@@H](C)C/C(C)=C/C=C\[C@H](OC)C([C@@H](C)[C@@H](O)[C@H](C)[C@@]2(O)C[C@@H](O)[C@H](C)C(C(C)C)O2)OC1=O (stereo partly specified),-1
C[C@@H]1O[C@H](O[C@@H]2C=C3CC[C@H]4[C@@H](CC[C@]5(C)[C@@H](c6ccc(=O)oc6)CC[C@]45O)[C@@]3(C)CC2)[C@@H](O)[C@H](O)[C@@H]1O,0

# Remaining list, next part.
SMILES,GLA inh pH 4.5
COc1cc2c(cc1OC)-c1c(OC)c(OC)c(C=O)c3c1[C@H](C2)N(C)CC3,1
CN(N=O)c1ccc(O)c(O)c1,1
S=C=NCc1ccccc1,0
CCC1(c2ccccc2)CCC(=O)NC1=O (stereo unspecified),-16
CN1Cc2c(ccc3c2OCO3)[C@@H]2[C@@H](O)Cc3cc4c(cc3[C@@H]21)OCO4,0
Cc1[nH]cnc1CCN,0
C=C1CC2C(CC[C@]3(C)C(=O)CCC23)[C@]2(C)C=CC(=O)C=C12 (stereo partly specified),-8
c1cncc([C@@H]2CCCCN2)c1,1&6
O=C1NO[C@@H]2CN[C@@H](C(=O)O)[C@H]12,2
Oc1ccc2c3c1O[C@H]1c4[nH]c5c(c4C[C@@]4(O)[C@@H](C2)N(CC2CC2)CC[C@]314)C[C@]1(O)[C@H]2Cc3ccc(O)c4c3[C@@]1(CCN2CC1CC1)[C@@H]5O4,-11
CCC(CO)NC(=O)[C@@H]1C=C2c3cccc4[nH]cc(c34)C[C@H]2N(C)C1 (stereo partly specified),0
CCC(=O)OC1CCC2C3CCC4=CC(=O)CC[C@@]4(C)C3CC[C@]12C (stereo partly specified),-7
CC(=O)OC1C[C@H](O[C@@H]2C(O)C[C@H](O[C@@H]3C(O)C[C@@H](OC4CC[C@]5(C)C(CCC6C5CC(O)[C@@]5(C)C(C7=CC(=O)OC7)CC[C@@]65O)C4)OC3C)OC2C)O[C@H](C)[C@H]1O[C@H]1OC(CO)C(O)C(O)C1O (stereo partly specified),-10
CCCCC/C=C\C=C\[C@H](CCCCCCCC(=O)O)OO,-5
CC[C@@]1(O)CC(O)c2c(cc3c(c2O)C(=O)c2c(O)ccc(O)c2C3=O)C1C(=O)OC (stereo partly specified),2
CCCCCCCCCCCCCC(=O)O[C@@H]1[C@@H](C)[C@@]2(O)[C@@H](C=C(CO)C[C@@]3(O)C(=O)C(C)=C[C@@H]23)C2C(C)(C)[C@@]21OC(C)=O (stereo partly specified),-17
CN(C)CCO,-8
CCC/C=C(\CCC)C(NP(=O)(c1ccccc1)c1ccccc1)c1ccccc1 (stereo unspecified),?
CC1=C2C3OC(=O)[C@H](C)[C@H]3CC[C@@]2(C)C=CC1=O (stereo partly specified),1
COc1cc(C=C(C#N)C#N)cc(O)c1O,-17
CN(C)C1C(=O)C(C(N)=O)=C(O)[C@@]2(O)C(=O)C3=C(O)c4c(O)cccc4[C@@](C)(O)C3C[C@@H]12 (stereo partly specified),-4
C=C(C)[C@]12C[C@@H](C)[C@@]34OC(Cc5ccccc5)(O[C@@H]1[C@@H]3C=C(COC(=O)Cc1cc(OC)c(O)cc1I)C[C@]1(O)C(=O)C(C)=C[C@@H]41)O2,?
C[Se]C[C@H](N)C(=O)O,3
COC1=C[C@]23CCCN2CCc2cc4c(cc2[C@@H]3[C@@H]1O)OCO4,-2
CC(=O)O[C@H]1C(=O)[C@@]2(C)C([C@H](OC(=O)c3ccccc3)[C@]3(O)C[C@H](OC(=O)[C@H](O)[C@@H](NC(=O)c4ccccc4)c4ccccc4)C(C)=C1C3(C)C)[C@]1(OC(C)=O)CO[C@@H]1C[C@@H]2OC(=O)[C@H](C)NC(=O)c1ccc(-c2c3ccc(=O)cc-3oc3cc(O)ccc23)c(C(=O)O)c1 (stereo partly specified),-14

# A different layout for 3 compounds above.
structure	GLA inh pH 4.5
c1cncc([C@@H]2CCCCN2)c1	1&6
O=C1NO[C@@H]2CN[C@@H](C(=O)O)[C@H]12	2
Oc1ccc2c3c1O[C@H]1c4[nH]c5c(c4C[C@@]4(O)[C@@H](C2)N(CC2CC2)CC[C@]314)C[C@]1(O)[C@H]2Cc3ccc(O)c4c3[C@@]1(CCN2CC1CC1)[C@@H]5O4	-11

# Continued:
SMILES,GLA inh pH 4.5
CCCN1[C@H](C(=O)OC)C[C@@H]2CC[C@@H](O)C[C@@H]21,-2
COC(=O)[C@@H]1C[C@H]2CC[C@H](O)C[C@H]2N1CC1CC1,-13
O[C@@H]1[C@H](O)[C@H]2[C@@H](O)CCN2C[C@@H]1O,-2
CCCN1C[C@H](C)N([C@H](c2ccc(C(=O)N(CC)CC)cc2)c2cccc(OC)c2)C[C@H]1C,5
CCC1CN2CCC1CC2C(O)c1ccnc2ccc(OC)cc12 (stereo unspecified),-2
c1ccc(N=Nc2ccccc2)cc1,2
N#CC(=Cc1ccc(O)c(O)c1)C(N)=S,-3
CCOC(=O)C1C(C=C(C)C)C1(C)C (stereo unspecified),-3
C[C@@H]1O[C@@H](O[C@H]2C[C@@H](O)[C@]3(CO)[C@@H]4C(CC[C@]3(O)C2)[C@@]2(O)CC[C@H](C3=CC(=O)OC3)[C@@]2(C)C[C@H]4O)[C@H](O)[C@H](O)[C@H]1O (stereo partly specified),2&-2
COc1ccc2cc1Oc1ccc(cc1)CC1c3cc(c(OC)cc3CCN1C)Oc1c(OC)c(OC)cc3c1C(C2)N(C)CC3 (stereo unspecified),-11
CN1C[C@@H](CS(=O)(=O)N(C)C)C[C@@H]2c3cccc4c3c(cn4C)C[C@H]21,0
Oc1ccc2c3c1O[C@H]1[C@@H](O)CC[C@@]4(O)C(C2)N(CC2CCC2)CCC314 (stereo partly specified),-1
CCCN1CCC[C@@H]2Cc3n[nH]cc3C[C@H]21,-7
C=C(C)C(=O)CP(=O)(OCC)OCC,-8
CN(C)[C@@H]1C(=O)C(C(N)=O)=C(O)[C@@]2(O)C(=O)C3=C(O)c4c(O)cccc4[C@@](C)(O)C3CC12 (stereo partly specified),-12
COc1cc2c3cc1Oc1cc(ccc1O)C[C@@H]1c4c(cc(OC)c(O)c4Oc4cccc(c4)C[C@H]3N(C)CC2)CC[N+]1(C)C,8
C[C@@H](CO)NC(=O)[C@@H]1C=C2c3cccc4[nH]cc(c34)C[C@H]2N(C)C1,7
C=C(C)C1Cc2c(ccc3c2OC2COc4cc(OC)c(OC)cc4C2C3=O)O1 (stereo unspecified),-13
CC(C)=CCCC1(C)C=Cc2c(O)c3c(c(CC=C(C)C)c2O1)OC12C(CC4CC1C(C)(C)OC2(C/C=C(/C)C(=O)O)C4O)C3=O (stereo unspecified),-11
CC1O[C@@H](OC2CC[C@@]3(C=O)C4CC[C@]5(C)C(C6=CC(=O)OC6)CC[C@@]5(O)C4CC[C@]3(O)C2)C(O)C(O)C1O (stereo partly specified),-9
Clc1ccc(C(c2ccc(Cl)cc2)C(Cl)(Cl)Cl)cc1,-3
C/C(O)=C(/C#N)C(=O)Nc1cc(Br)ccc1Br,-5
CC(C)CC(NP(=O)(O)O[C@@H]1O[C@@H](C)[C@H](O)[C@@H](O)[C@H]1O)C(=O)NC(Cc1c[nH]c2ccccc12)C(=O)O (stereo partly specified),4
Cc1cc(C)cc(C(=O)OC2C[C@H]3CC[C@@H](C2)N3C)c1 (stereo partly specified),-5
COc1ccc2c(c1OC)C(=O)O[C@@H]2C1c2cc3c(cc2CCN1C)OCO3 (stereo partly specified),0

# The final 6 records of the part before come first, to join the parts.
SMILES,GLA inh pH 4.5
CC1O[C@@H](OC2CC[C@@]3(C=O)C4CC[C@]5(C)C(C6=CC(=O)OC6)CC[C@@]5(O)C4CC[C@]3(O)C2)C(O)C(O)C1O (stereo partly specified),-9
Clc1ccc(C(c2ccc(Cl)cc2)C(Cl)(Cl)Cl)cc1,-3
C/C(O)=C(/C#N)C(=O)Nc1cc(Br)ccc1Br,-5
CC(C)CC(NP(=O)(O)O[C@@H]1O[C@@H](C)[C@H](O)[C@@H](O)[C@H]1O)C(=O)NC(Cc1c[nH]c2ccccc12)C(=O)O (stereo partly specified),4
Cc1cc(C)cc(C(=O)OC2C[C@H]3CC[C@@H](C2)N3C)c1 (stereo partly specified),-5
COc1ccc2c(c1OC)C(=O)O[C@@H]2C1c2cc3c(cc2CCN1C)OCO3 (stereo partly specified),0
CC1(C)S[C@@H]2[C@H](N)C(=O)N2C1C(=O)O (stereo partly specified),-8
C=C[C@]12CN(C)[C@H]3C1[C@@]1(C(=O)Nc4ccccc41)[C@H]1C[C@H]2[C@H]3CO1,4
NC(N)=NOCC[C@H](N)C(=O)O,2&-7&-13
COc1ccc(C2Oc3c(I)c(OC)cc(OC)c3CC2O)cc1OC (stereo unspecified),1
CCCCC/C=C\C/C=C\C/C=C\C=C\[C@H](CCCC(=O)O)OO,-10
COC(=O)[C@@H]1C[C@H](OC(C)=O)C(=O)[C@H]2[C@@]1(C)CC[C@H]1C(=O)O[C@H](c3ccoc3)C[C@]21C,-6
CC1(C)C(=O)C=C[C@@]2(C)C1=C(O)C(=O)[C@@]1(C)C2CC[C@@]2(C)C(c3ccoc3)C[C@H]3O[C@@]321 (stereo partly specified),-2
CCOC(OCC)P(=O)(O)CCCN,6
O[C@@H](Cc1ccncc1)C(Cl)(Cl)Cl,-5
CC[C@]12CCCN3CCC4(c5ccccc5NC4C(C(=O)O)C1)C32 (stereo partly specified),-3
O=C(Nc1ccc(Br)cc1)c1cc(Br)cc(Br)c1O,-10
Oc1ccc2c3c1O[C@H]1c4[nH]c5c(c4C[C@@]4(O)[C@@H](C2)N(CC2CC2)CC[C@]314)C[C@@]1(O)[C@H]2Cc3ccc(O)c4c3[C@@]1(CCN2CC1CC1)[C@H]5O4,-7
C[C@H](N)Cc1c[nH]c2ccc(O)cc12,0
CCCCCCCCCCCCCCCCOC[C@@H](O)COP(=O)([O-])OCC[N+](C)(C)C,6
C=C[C@H]1CN2CC[C@H]1C[C@H]2c1[nH]c2ccccc2c1CCO,-1
C[C@@]12CC(=O)[C@H]3[C@@H](CCC4=CC(=O)CC[C@]43C)[C@H]1CCC2=O,-6
CN1C(=O)CCS(=O)(=O)C1c1ccc(Cl)cc1 (stereo unspecified),-1&7
Cc1cccc(NC(=O)N[C@@H]2N=C(c3ccccc3)c3ccccc3N(CC(=O)c3ccccc3C)C2=O)c1,-4
C[C@]12CC[C@H]3[C@@H](CCC4C[C@H](O)CC[C@@]43C)[C@@H]1CC[C@@H]2O (stereo partly specified),-2
CN1CCc2cc3c(cc2[C@@H]1O)OCO3,?
COC1=C[C@H]2[C@H]3Cc4ccc(OC)c(O)c4[C@@]2(CCN3C)CC1=O,1
OC(O)C(Cl)(Cl)Cl,2
OCC1CCCN2CCCCC12 (stereo unspecified),0&-7
